EPAC2 antag = Validation qHTS for antagonist of cAMP-regulated guanine nucleotide exchange factor 4 (EPAC2); Rap guanine nucleotide exchange factor 4 (Homo sapiens), Q8WZA2; EPAC2 Rap1B BODIPY-GDP exchange, fluorescence; Potency, µM (titrated, usually from 112 µM), for the others: at the top dose activity, negative = inhibition, actives largely listed as inhibitors; hit rate 1.7% among 16,000; AID 1645886, 2021; active means well fitted inhibition curve with a large enough effect; inconclusive means small, poorly fitted or top-dose-only effect; inactive means no such curve, though single readings can be large or run the other way;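 further: 100% = activation by cAMP agonist control; nearly all actives have a fitted effect of over 40% in size; the record reuses the description of the EPAC1 agonist screen; inactives centre near -10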
Target sequence (Q8WZA2 whole entry, looked up): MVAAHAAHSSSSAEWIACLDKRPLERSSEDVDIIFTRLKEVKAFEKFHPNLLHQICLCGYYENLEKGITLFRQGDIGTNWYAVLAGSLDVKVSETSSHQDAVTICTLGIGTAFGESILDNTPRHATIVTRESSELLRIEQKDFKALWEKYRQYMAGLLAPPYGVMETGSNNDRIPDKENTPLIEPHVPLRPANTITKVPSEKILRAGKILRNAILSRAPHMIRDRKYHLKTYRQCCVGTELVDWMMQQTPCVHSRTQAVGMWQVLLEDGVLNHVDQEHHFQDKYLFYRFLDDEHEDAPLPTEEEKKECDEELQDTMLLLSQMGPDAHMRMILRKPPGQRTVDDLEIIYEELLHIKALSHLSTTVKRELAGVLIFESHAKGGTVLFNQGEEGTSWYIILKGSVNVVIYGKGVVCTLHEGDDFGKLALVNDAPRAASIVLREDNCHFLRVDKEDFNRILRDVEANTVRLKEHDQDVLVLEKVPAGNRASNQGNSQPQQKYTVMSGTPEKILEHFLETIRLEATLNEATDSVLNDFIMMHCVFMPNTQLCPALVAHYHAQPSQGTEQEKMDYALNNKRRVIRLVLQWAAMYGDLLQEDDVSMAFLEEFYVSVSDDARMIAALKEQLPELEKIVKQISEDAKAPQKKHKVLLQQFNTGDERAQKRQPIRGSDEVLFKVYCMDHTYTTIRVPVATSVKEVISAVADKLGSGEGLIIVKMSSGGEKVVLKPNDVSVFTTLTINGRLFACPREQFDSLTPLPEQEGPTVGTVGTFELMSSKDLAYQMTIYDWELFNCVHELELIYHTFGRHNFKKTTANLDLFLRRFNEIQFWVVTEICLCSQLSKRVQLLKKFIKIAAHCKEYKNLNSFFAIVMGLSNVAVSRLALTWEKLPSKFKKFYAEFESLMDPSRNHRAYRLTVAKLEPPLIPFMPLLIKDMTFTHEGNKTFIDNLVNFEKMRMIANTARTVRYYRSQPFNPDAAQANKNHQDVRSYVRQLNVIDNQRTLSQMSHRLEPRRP
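Normalized against a 6.5 mM cAMP agonist control, compounds were tested on 100 nM EPAC2 exchanging Rap1B-bound BODIPY-GDP (250 nM) for 50 uM GDP. Fluorescence drop (ex 480, em 540 nm) was tracked at room temperature over 30 min at 5-min intervals.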
Active calls of the source: *; u = inconclusive; & = joins results of further samples; ! = a repeat was not active; [ ] = remark or other dose. Potency means the concentration at half of the fitted maximal effect.

Start of the listing, in advance (33 entries):
SMILES | EPAC2 antag
OCc1ccccn1 | -2%
CCC(=O)O[C@]1(C(=O)SCF)[C@H](C)C[C@H]2[C@@H]3C[C@H](F)C4=CC(=O)C=C[C@]4(C)[C@@]3(F)[C@@H](O)C[C@@]21C | 4%[56.6 µM]
CC(C)(C)c1nnc(NS(=O)(=O)c2ccccc2)s1 | -16%
Cc1cccc(Nc2cc(Cl)nc(SCC(=O)O)n2)c1C | -19%
CCCCOc1ccc(CC(=O)NO)cc1 | -10%[56.6 µM]
NCCNC(=O)c1ccc(Cl)cn1 | -34%
CCOC(=O)NNc1nncc2ccccc12 | -21%&30%
CC(=O)Oc1ccc2c(c1)CC[C@@H]1[C@@H]2CC[C@]2(C)[C@@H](O)CC[C@@H]12 | 88%[activator]
C#C[C@@]1(O)CCC2C3CCC4=CC(=O)CCC4C3CC[C@@]21CC (stereo partly drawn) | -21%
C/C=C/C=N/NC(=O)c1ccncc1 | -17%
C/C(=N\O)c1ccc(OCC(=O)N2CCCCC2)cc1 | 17%
O=C(O)CNC(=O)c1ccccc1 | -28%
CC[C@]1(O)C[C@@H]2CN(CCc3c([nH]c4ccccc34)[C@@](C(=O)OC)(c3cc4c(cc3OC)N(C)[C@H]3[C@@](O)(C(=O)OC)[C@H](OC(C)=O)[C@]5(CC)C=CCN6CC[C@]43[C@@H]65)C2)C1 | 1%&16%
C#CCC(Cc1cnc2nc(N)nc(N)c2n1)c1ccc(C(=O)N[C@@H](CCC(=O)O)C(=O)O)cc1 (stereo partly drawn) | -6%
CCn1cc(C(=O)O)c(=O)c2cc(F)c(N3CCNCC3)nc21 | -15%[56.6 µM]
Nc1ncnc2nc[nH]c12 | -19%
C/C(=C(\CCO)SS/C(CCO)=C(\C)N(C=O)Cc1cnc(C)nc1N)N(C=O)Cc1cnc(C)nc1N | -15%
CC(=O)Nc1ccc(S(=O)(=O)Nc2cc(C)on2)cc1 | -7%
O=C(Nc1ccc(Cl)c(Cl)c1)C1CC1 | -17%
COc1ccc(/C=N/NC(=O)c2ccncc2)cc1OC | -3%
Cc1cc(C)cc(OCC2CNC(=O)O2)c1 (stereo not drawn) | 5%
CNc1c2c(nn1C)CCCC2 | -7%
CCCCCCCCCCCCCCNCCO | -16%
CN(C)CCOc1ccccc1Cc1ccccc1 (tested in a mixture with another compound) | 1%
COc1ccc(/C=C\C(=O)Nc2ccccc2C(=O)O)cc1OC | -13%
NC(N)=NCCC[C@@H](N)C(=O)O | -10%&-5%
CN(C)CCOc1ccccc1Cc1ccccc1 | 15%
Cc1cccc(C)c1NC(=O)CN(CC(=O)O)CC(=O)O | 15%
COc1cc([C@H]2Oc3cc([C@H]4Oc5cc(O)cc(O)c5C(=O)[C@@H]4O)ccc3O[C@@H]2CO)ccc1O | 6%
CCCCC(=O)O[C@]1(C(=O)CO)[C@H](C)C[C@H]2[C@@H]3CCC4=CC(=O)C=C[C@]4(C)[C@@]3(F)[C@@H](O)C[C@@]21C | -16%
CCCOC(C(=O)OC1CCN(C)CC1)(c1ccccc1)c1ccccc1 | -7%
C=CCOc1cc(Cl)ccc1C(=O)NCCN(CC)CC | -1%
NCCCC[C@H](N)C(=O)O | -12%

Main list, previewed entries included:
SMILES | EPAC2 antag
OCc1ccccn1 | -2%
CCC(=O)O[C@]1(C(=O)SCF)[C@H](C)C[C@H]2[C@@H]3C[C@H](F)C4=CC(=O)C=C[C@]4(C)[C@@]3(F)[C@@H](O)C[C@@]21C | 4%[56.6 µM]
CC(C)(C)c1nnc(NS(=O)(=O)c2ccccc2)s1 | -16%
Cc1cccc(Nc2cc(Cl)nc(SCC(=O)O)n2)c1C | -19%
CCCCOc1ccc(CC(=O)NO)cc1 | -10%[56.6 µM]
NCCNC(=O)c1ccc(Cl)cn1 | -34%
CCOC(=O)NNc1nncc2ccccc12 | -21%&30%
CC(=O)Oc1ccc2c(c1)CC[C@@H]1[C@@H]2CC[C@]2(C)[C@@H](O)CC[C@@H]12 | 88%[activator]
C#C[C@@]1(O)CCC2C3CCC4=CC(=O)CCC4C3CC[C@@]21CC (stereo partly drawn) | -21%
C/C=C/C=N/NC(=O)c1ccncc1 | -17%
C/C(=N\O)c1ccc(OCC(=O)N2CCCCC2)cc1 | 17%
O=C(O)CNC(=O)c1ccccc1 | -28%
CC[C@]1(O)C[C@@H]2CN(CCc3c([nH]c4ccccc34)[C@@](C(=O)OC)(c3cc4c(cc3OC)N(C)[C@H]3[C@@](O)(C(=O)OC)[C@H](OC(C)=O)[C@]5(CC)C=CCN6CC[C@]43[C@@H]65)C2)C1 | 1%&16%
C#CCC(Cc1cnc2nc(N)nc(N)c2n1)c1ccc(C(=O)N[C@@H](CCC(=O)O)C(=O)O)cc1 (stereo partly drawn) | -6%
CCn1cc(C(=O)O)c(=O)c2cc(F)c(N3CCNCC3)nc21 | -15%[56.6 µM]
Nc1ncnc2nc[nH]c12 | -19%
C/C(=C(\CCO)SS/C(CCO)=C(\C)N(C=O)Cc1cnc(C)nc1N)N(C=O)Cc1cnc(C)nc1N | -15%
CC(=O)Nc1ccc(S(=O)(=O)Nc2cc(C)on2)cc1 | -7%
O=C(Nc1ccc(Cl)c(Cl)c1)C1CC1 | -17%
COc1ccc(/C=N/NC(=O)c2ccncc2)cc1OC | -3%
Cc1cc(C)cc(OCC2CNC(=O)O2)c1 (stereo not drawn) | 5%
CNc1c2c(nn1C)CCCC2 | -7%
CCCCCCCCCCCCCCNCCO | -16%
CN(C)CCOc1ccccc1Cc1ccccc1 (tested in a mixture with another compound) | 1%
COc1ccc(/C=C\C(=O)Nc2ccccc2C(=O)O)cc1OC | -13%
NC(N)=NCCC[C@@H](N)C(=O)O | -10%&-5%
CN(C)CCOc1ccccc1Cc1ccccc1 | 15%
Cc1cccc(C)c1NC(=O)CN(CC(=O)O)CC(=O)O | 15%
COc1cc([C@H]2Oc3cc([C@H]4Oc5cc(O)cc(O)c5C(=O)[C@@H]4O)ccc3O[C@@H]2CO)ccc1O | 6%
CCCCC(=O)O[C@]1(C(=O)CO)[C@H](C)C[C@H]2[C@@H]3CCC4=CC(=O)C=C[C@]4(C)[C@@]3(F)[C@@H](O)C[C@@]21C | -16%
CCCOC(C(=O)OC1CCN(C)CC1)(c1ccccc1)c1ccccc1 | -7%
C=CCOc1cc(Cl)ccc1C(=O)NCCN(CC)CC | -1%
NCCCC[C@H](N)C(=O)O | -12%
CC(=O)Nc1ncc([N+](=O)[O-])s1 | -2%
Nc1c2c(nc3ccccc13)CCCC2O (stereo not drawn) | -1%&5%&-13%
Oc1cc2c(cc1O)[C@@H]1c3ccc(O)c(O)c3OC[C@]1(O)C2 | 5%
Cn1c(=O)c2c(ncn2CCO)n(C)c1=O | 5%&7%
Cc1ccc2nc(N)[nH]c(=O)c2c1Sc1ccncc1 | 7%
CCCCNC(=O)[C@@H]1Cc2ccccc2N1C(=O)[C@H](N)CC | -15%
NS(=O)(=O)c1cc(-c2nn[nH]n2)c(NCc2cccs2)cc1Cl | 10%
CCCOC(=O)c1ccc(O)cc1 | -41%[239 µM]
CC(=O)Nc1ccccc1 | -12%&-4%
COc1ccccc1OCCNCC(O)COc1cccc2[nH]c3ccccc3c12 (stereo not drawn) | 3%&-26%
CC1CC2C3CC(F)C4=CC(=O)C=C[C@@]4(C)[C@@]3(F)C(O)C[C@]2(C)[C@]1(O)C(=O)COC(=O)C(C)(C)C (stereo partly drawn) | -16%
NCCCC[C@@H](N)C(=O)O | 4%
CCCCCCCCCCCCCCCC(=O)O | 2%
C=C1c2cccc(O)c2C(O)=C2C(=O)[C@]3(O)C(O)=C(C(N)=O)C(=O)[C@@H](N(C)C)[C@@H]3[C@@H](O)[C@H]12 | 45%[activator][56.6 µM]
COc1ccc(S(=O)(=O)N2c3ccc(Cl)cc3[C@@](O)(c3ccccc3Cl)[C@H]2C(=O)N2CCC[C@@H]2C(N)=O)cc1OC | 5%
CCCCC1C(=O)N(c2ccccc2)N(c2ccccc2)C1=O | u
NC1(c2ccc(-c3nc4ccn5c(=O)[nH]nc5c4cc3-c3ccccc3)cc2)CCC1 | 8%
COc1ccc(-c2cc(=O)c3c(O)c(OC)c(OC)c(OC)c3o2)cc1OC | -19%
CCCCCCCCCCCCCC[N+](C)(C)Cc1ccccc1 | 8%
COc1ccc2nc(NC(=O)Nc3ccccc3)sc2c1 | -16%
Cc1cccc(C)c1NC(=O)C1CCCCN1C (stereo not drawn) | -10%
COc1ccc2ccc(=O)oc2c1 | -18%
CCCCCCc1ccc(O)cc1O | 40µM*!
O=C(NN1CCCC1)NS(=O)(=O)c1ccc(Cl)cc1 | 16%
CC1(C)OC2CC3C4CC(F)C5=CC(=O)C=C[C@@]5(C)[C@@]4(F)C(O)C[C@@]3(C)[C@]2(C(=O)CO)O1 (stereo partly drawn) | -5%
O=C(O)c1cc2ccccc2c(Cc2c(O)c(C(=O)O)cc3ccccc23)c1O | 24%
O=C(Nc1ccc(C(=O)O)c(O)c1)c1ccccc1 | 6%

Going on with the list:
SMILES | EPAC2 antag
CCCCCCCC/C=C\CCCCCCCC(=O)O | -5%
NC(=NCc1ccccc1)NC(=O)c1nc(Cl)c(N)nc1N | 0%
O=P(O)(O)OC(CO)CO | 1%
CCCCCCCCCCCCCCCCCC(=O)O | -14%
COc1cc([C@@H]2Oc3cc([C@H]4Oc5cc(O)cc(O)c5C(=O)[C@H]4O)ccc3O[C@H]2CO)ccc1O | -22%
NNC(=O)CP(=O)(c1ccccc1)c1ccccc1 | -16%
COc1ccc(CN2CCN(C(c3ccc(F)cc3)c3ccc(F)cc3)CC2)c(OC)c1OC | u
CC(C)[C@@H]1CC[C@@H](C)CC1=O | 6%
CNC1CCCN(c2c(F)cc3c(=O)c(C(=O)O)cn(C4CC4)c3c2OC)C1 (stereo not drawn) | 8%
NC(N)=NC(=O)Cc1c(Cl)cccc1Cl | -17%&2%&-17%
COc1ccc(/C=C/C(=O)O)cc1 | -8%
Nc1c2ccccc2nc2ccccc12 (tested in a mixture with another compound) | 79µM*

3 entries already listed, ordered by heavy-atom count, highest first.
SMILES | EPAC2 antag
NC(N)=NC(=O)Cc1c(Cl)cccc1Cl | -17%&2%&-17%
CC(C)[C@@H]1CC[C@@H](C)CC1=O | 6%
O=P(O)(O)OC(CO)CO | 1%

Not all compounds are listed, so the mix of outcomes need not match the whole.
